HCMV UL50-53 inh – disrupts HCMV UL50-UL53 complex binding | HTRF UL50-UL53 interaction, normalized percent inhibition | inhibition, % (concentration not given with the values) | hit rate 0.15% among 190,000;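 active means both replicates at 50% or more, plus weaker picks with an unusually low signal ratio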;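 further: stock transfer was 100 nL into about 20 µL; 0% = negative control wells and 100% = wells with untagged competitor protein; inactives centre near -12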
GIV-Gai inh – blocks GIV peptide binding to rat Galpha-i3. hit rate 0.42% among 210,000. percent of control (FP), % (concentration not given with the values). Galpha-i3/FITC-GIV peptide fluorescence polarization, 90 min; active compounds read low; scaled: aluminum fluoride 0%, vehicle 100%. P08753;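 active means replicate mean at 85% of control or lower, very high polarization wells dropped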;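 further: wells of about 15 µL received 100 nL stock; the first replicate is given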
Target sequence (P08753 whole entry, looked up): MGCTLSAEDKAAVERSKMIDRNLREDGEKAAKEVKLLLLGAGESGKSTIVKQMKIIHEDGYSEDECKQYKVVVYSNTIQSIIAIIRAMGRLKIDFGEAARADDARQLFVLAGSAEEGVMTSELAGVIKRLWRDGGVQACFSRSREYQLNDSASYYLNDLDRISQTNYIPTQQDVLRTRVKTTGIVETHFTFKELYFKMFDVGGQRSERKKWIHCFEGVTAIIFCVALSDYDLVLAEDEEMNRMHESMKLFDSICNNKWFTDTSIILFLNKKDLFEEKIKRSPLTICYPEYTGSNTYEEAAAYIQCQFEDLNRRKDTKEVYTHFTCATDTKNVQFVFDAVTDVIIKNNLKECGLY
Sa growth inh – inhibitors of Staphylococcus aureus growth at 42 °C; S. aureus RN4220 growth, OD600, 20 h; active compounds read low; relative growth, % (test concentration not listed); hit rate 0.53% among 170,000; AID 720641;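 active means growth at 42 °C up to 50% and 20 or more points under that at 30 °C, or under 10% at both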;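 further: 300 nL library stock went into each well; scaled to the means of positive and negative controls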
Sa growth inh second temp – second read-out of Sa growth inh, no call of its own (marks repeat the call); relative growth, %; measured here: growth at 30 °C;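 optical density after 20 h as mean of two plates; 100% = untreated growth and lower means inhibition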
An asterisk follows results filed as active; . = no result given; & = joins results of further samples.

Under each structure – HCMV UL50-53 inh | GIV-Gai inh | Sa growth inh | Sa growth inh second temp
- O=C(O)CC(NC(=O)c1ccco1)c1ccc(F)cc1 (configuration not stated)
→ -21 | 101 | 85 | 92
- Cc1nc2ccccc2n1CCN=Cc1c(O)[nH]c(=O)[nH]c1=O
→ -3 | . | 88 | 89
- COc1ccc(S(=O)(=O)N(CC(=O)Nc2ccc(OC)cc2OC)c2ccc(Cl)cc2)cc1
→ 15 | 105 | 97 | 89
- COc1ccc(-n2cc(C(=O)NCCCN3CCC(C)CC3)c3ccccc3c2=O)cc1
→ -16 | 110 | . | .
- CN(CCCNCC1CC2C=CC1C2)c1ccccc1 (configuration not stated)
→ 12 | . | 114 | 100
- COC(=O)c1c(-n2cccc2)sc(C)c1C
→ . | 104 | 96 | 98
- CCn1cc(C(=O)N2CCN(c3cccc(Cl)c3)CC2)c(=O)c2cc(S(=O)(=O)N3CCC(C)CC3)ccc21
→ -42 | 101 | 96 | 78
- Cc1c(NC(=O)c2ccccc2)c(=O)n(-c2ccccc2)n1C
→ . | 101 | 80 | 86
- C=CCNC(=O)/C(=C/c1ccccc1)c1ccccc1
→ -1 | 102 | 98 | 77
- O=C(c1ccccc1)c1cccn1CC(=O)N1CCCC1
→ . | 102 | 92 | 87
- O=C(C1=C(O)C(=O)N(CCc2ccccc2)C1c1ccncc1)c1cc2ccccc2o1 (configuration not stated)
→ -30 | 99 | 128 | 94
- Cc1cc(=O)oc2cc(OCC(=O)NCc3ccc(Cl)cc3)ccc12
→ -9 | . | 98 | 92
- CC(C)COc1ccc(-c2nonc2NC(=O)c2ccc(F)cc2)cc1
→ -18 | 99 | 106 | 91
- O=C(O)COCC(=O)Nc1ccc(Oc2c(Cl)cccc2Cl)nc1
→ -16 | 106 | 94 | 83
- CN1/C(=C\C(=O)Cn2cc(S(=O)(=O)N3CCCC3)ccc2=O)C(C)(C)c2ccccc21
→ -8 | . | 93 | 94
- CCc1ccccc1NC(=O)CCCN1C(=O)COc2ccc(C)cc21
→ -14&-2 | 100&109 | 112 | 85
- CC(C)c1cc(-c2nnc3sc(-c4ccccc4Cl)nn23)n[nH]1
→ 6 | 110 | . | .
- CCCCc1cc(=O)oc2cc(OC(=O)c3ccco3)ccc12
→ 1 | 105 | 102 | 76
- CCCC12CN3CC(CCC)(CN(C1)C3c1c[nH]c3ccccc13)C2=O (configuration not stated)
→ -28 | 97&101 | 118&87 | 101&84
- O=C1Cc2ccccc2N1
→ -25 | 105 | 90 | 81
- CCNC(=S)N/N=C/c1ccc2ncccc2c1
→ -72 | . | 89 | 89
- Cc1nc2c(c(C)c1CCC(=O)Nc1ccc(F)cc1)c(=O)n(C)c(=O)n2C
→ -14 | 103 | 118 | 90
- CCOC(=O)c1oc2ccc(Br)cc2c1COC(=O)Cc1n[nH]c(=O)c2ccccc12
→ -23 | . | 93 | 91
- CCOc1ccc(C(=O)NCCS(=O)(=O)N2CCN(c3cccc(Cl)c3)CC2)cc1
→ . | 107 | 126 | 93
- CC1CC(C)CN(CC(=O)Nc2ccccc2C(N)=O)C1 (configuration not stated)
→ -29 | 105 | 110 | 94
- COCc1nnc(NC(=O)C2CC(=O)N(c3ccc(C)cc3)C2)s1 (configuration not stated)
→ 13 | 104 | 86 | 101
- CCOc1cc(CNC(=O)c2ccc(Cn3c(=O)c4cccn4c4cccnc43)cc2)ccc1OC
→ . | 105 | 109 | 86
- Oc1ccc(CNc2cccc(C(F)(F)F)c2)c2cccnc12
→ . | 105 | 94 | 64
- COc1ccc(C)cc1NS(=O)(=O)c1cnc(N)nc1
→ . | 109 | 103 | 86
- CC(O)CN(CC(C)O)CC1CC=CCC1 (configuration not stated)
→ -18 | 107 | 86 | 108
- CCOC(=O)c1c(-c2ccccc2)csc1NC(=O)C1CC1
→ 3 | . | 89 | 98
- CC1CCC(NC(=O)C2CCN(c3nc4ccccc4[nH]3)CC2)CC1 (configuration not stated)
→ -31 | 101 | . | .
- COc1ccc(N2CCN(C(=O)c3cc(C)n(-c4ccc(N5CCCCC5)nc4)c3C)CC2)cc1
→ -25 | 98 | . | .
- COc1ccc(-c2nc(SC(C(=O)NC(N)=O)C(C)C)n[nH]2)cc1 (configuration not stated)
→ -20 | . | 111 | 70
- O=C1NC(=O)N(c2ccccc2)C(=O)/C1=C\c1ccc(-c2ccccc2C(=O)O)o1
→ -18 | 100 | . | .
- CC(=O)N1c2ccc(S(=O)(=O)NCC3CCC(C(=O)Nc4cccc(C)c4)CC3)cc2CC1C (configuration not stated)
→ -17 | 102&110 | 98 | 86
- CC(=O)OC1COC(n2ccc3ccccc32)C(OC(C)=O)C1OC(C)=O (configuration not stated)
→ 8 | 103 | 97 | 88
- CCCCN(C)c1nnc(NC(=O)Nc2cccc(C(C)=O)c2)s1
→ 8 | 102 | 81 | 94
- CCOc1ccccc1-n1c(SCC(=O)c2ccc3c(c2)OCCO3)nc(O)cc1=O
→ . | 98 | 82 | 44
- O=C(NCC1CCCO1)c1ccc(Nc2cc(-c3ccc(F)cc3)ncn2)cc1 (configuration not stated)
→ -14 | 105 | . | .
- O=C(Nc1nc2ccccc2[nH]1)c1ccccc1
→ -6 | . | 105 | 50
- CCOC(=O)NC1CCS(=O)(=O)C1 (configuration not stated)
→ . | 94 | 95 | 103
- CCOC(=O)c1c(C)[nH]c(C)c1S(=O)(=O)N1CCC(C(=O)Nc2ccc3c(c2)OCCO3)CC1
→ -22 | 105 | . | .
- Cc1ccc(C)n1-n1cnnc1
→ -2 | 101 | . | .
- COc1ccc(C(=O)NCCn2cc(SCC(=O)Nc3ccc4c(c3)OCCO4)c3ccccc32)cc1OC
→ -19 | 100 | 84 | 77
- O=C(COC(=O)c1cccc(-n2cccc2)c1)NCc1ccccc1
→ 3 | . | 65 | 97
- COc1ccc(-c2csc(-c3cc(C)on3)n2)cc1
→ 5 | 99 | 100 | 92
- CCOC(=O)c1c(Nc2ccc(OC)cc2)nnc(-c2ccccc2)c1-c1ccccc1
→ 9 | 108 | 94 | 97
- Cc1ccc(N2C(=O)CS(=O)(=O)C23C(=O)N(Cc2ccccc2F)c2ccccc23)cc1Cl (configuration not stated)
→ 5 | 105 | 97 | 104
- CCN(CCCNC(=O)C1CCN(c2nc3cccnc3s2)CC1)c1cccc(C)c1
→ -41 | 105 | . | .
- CCCN(C(=O)c1ccc2c(=O)n3c(nc2c1)CCCC3)c1ccc(Cl)c(Cl)c1
→ . | 102 | 83 | 71
- Cc1ccc2c(c1)N(C(=O)CCC(=O)NCc1cccs1)CCO2
→ -7 | 98 | 106 | 90
- Cc1ccc(-n2c(C)c3c(C)nnc(C)c3c2C)cc1
→ -58 | . | 89 | 81
- COc1ccc(OC)c(CNC(=O)c2[nH]c(C)c(S(=O)(=O)N3CCCC3)c2C)c1
→ -21 | 107 | . | .
- CCOc1cc2c(cc1OCC)C(CC(=O)O)N(C(=O)NCc1ccccc1)CC2 (configuration not stated)
→ -8 | 104 | 94 | 96
- Cc1ccc(NC(=O)CSc2nc(=O)n(CCN3CCOCC3)c3c2CCC3)cc1Cl
→ . | 100 | 100 | 93
- Brc1ccc(OCc2nnc3sc(C4COc5ccccc5O4)nn23)cc1 (configuration not stated)
→ -10 | 102 | . | .
- CC(N)C12CC3CC(CC(C3)C1)C2 (configuration not stated)
→ -38&-40&-18&-12&-27&-51 | 96 | 97&92&100 | 92&90&85
- c1ccc2c(CCNc3nn4nnnc4c4ccccc34)c[nH]c2c1
→ 9 | 100 | . | .
- O=C(NCC1CCN(C2CCCC2)C1)c1cnn2ccccc12 (configuration not stated)
→ . | 101 | 86 | 95

(next part)
Under each structure – HCMV UL50-53 inh | GIV-Gai inh | Sa growth inh | Sa growth inh second temp
- Cc1oc2c(c1C(=O)NC1CCCC1)C(=O)c1ccccc1C2=O
→ . | 103 | 3.9* | 0.4*
- O=C(CSc1nnc2n(Cc3ccco3)c(=O)c3sccc3n12)Nc1cc(F)ccc1F
→ 8 | 97 | . | .
- Cc1cc(C)nc(N(C#N)CC(=O)N2c3ccccc3CCc3ccccc32)n1
→ -5 | 100 | 97 | 92
- CSc1ccc(C2CC(=O)Oc3c2c(=O)n(C)c2ccccc32)cc1 (configuration not stated)
→ -5 | 106 | 106 | 89
- CN(C)C(=O)C(Sc1nnc(-c2ccccc2F)n1C)c1ccccc1 (configuration not stated)
→ -4 | . | 93 | 95
- CCCSc1ncccc1C(=O)Nc1c(-c2ccccc2)noc1C
→ -16 | 109 | 95 | 89
- O=C(Oc1coc(CSc2ncccn2)cc1=O)c1ccc(S(=O)(=O)N2CCCC2)cc1
→ -21 | 105 | 97 | 88
- O=C(Nc1cccc(-c2noc(-c3ccccn3)n2)c1)c1ccco1
→ -41 | 95 | 97 | 91
- CCCN1CCN(c2nnc(-n3cccc3C(=O)Nc3cc(Cl)ccc3C)s2)CC1
→ . | 106 | 89 | 90
- O=c1c2c(-c3ccc(Cl)cc3)csc2ncn1Cc1ccc2c(c1)OCO2
→ -9 | 99 | . | .
- COc1ccc(-c2cc(=O)c3ccccc3o2)cc1
→ 1 | 107 | 97 | 91
- O=c1[nH]n(Cc2ccccc2)c2ccccc12
→ -19 | 100 | 105 | 80
- CC(C)c1ccc(NC2=CC(=O)CCC2)cc1
→ -4 | 98 | 89 | 73
- Cc1ccc(-n2nc(C(=O)N3CCN(c4cc(C)ccc4C)CC3)c3c4ccccc4n(C)c3c2=O)cc1
→ 10 | 97 | 105 | 93
- COc1ccc(NC(=O)C2CCCN(S(=O)(=O)c3ccc(Br)s3)C2)cc1 (configuration not stated)
→ -6 | 104 | 97 | 87
- CCOc1ccc(C2C(=O)N(C3CCCCC3)CC(=O)N2Cc2ccccc2OC)cc1OC (configuration not stated)
→ . | 105 | 94 | 82
- O=C(CSc1ccccn1)C12CC3CC(CC(C3)C1)C2
→ -25 | . | 100 | 85
- O=C(Nc1ccccc1-c1nc2ccccc2s1)c1ccc(F)cc1
→ -12 | 106 | 116 | 88
- COc1ccc(C(=O)COC(=O)c2ccc(N3C(=O)C4CC=CCC4C3=O)cc2)cc1 (configuration not stated)
→ -4 | 113 | . | .
- O=C(Nc1ccc2c(c1)OCO2)c1c(O)c2ccccc2[nH]c1=O
→ -19 | 104 | . | .
- Cc1ccc(S(=O)(=O)c2c(C)nn(-c3ccccc3)c2OC(=O)c2ccco2)cc1
→ -13 | 99 | 94 | 75
- O=c1c(Cl)c(N2CCCC2)cnn1-c1nc2ccccc2s1
→ -142 | 99 | 94 | 89
- COC(=O)c1cc(S(=O)(=O)N(C)c2ccc(C)c(C)c2)c[nH]1
→ 8 | 103 | 101 | 88
- O=C(CC1(O)C(=O)Nc2ccccc21)c1ccc2ccccc2c1 (configuration not stated)
→ . | 97 | 106 | 96
- CN(C(=O)COc1ccc(-c2nn(C)c(=O)c3ccccc23)cc1)C1CCCCC1
→ 1 | 99 | 93 | 88

Molecules shown so far that contain a Cl atom:
Under each structure – HCMV UL50-53 inh | GIV-Gai inh | Sa growth inh | Sa growth inh second temp
- COc1ccc(S(=O)(=O)N(CC(=O)Nc2ccc(OC)cc2OC)c2ccc(Cl)cc2)cc1
→ 15 | 105 | 97 | 89
- CCn1cc(C(=O)N2CCN(c3cccc(Cl)c3)CC2)c(=O)c2cc(S(=O)(=O)N3CCC(C)CC3)ccc21
→ -42 | 101 | 96 | 78
- Cc1cc(=O)oc2cc(OCC(=O)NCc3ccc(Cl)cc3)ccc12
→ -9 | . | 98 | 92
- O=C(O)COCC(=O)Nc1ccc(Oc2c(Cl)cccc2Cl)nc1
→ -16 | 106 | 94 | 83
- CC(C)c1cc(-c2nnc3sc(-c4ccccc4Cl)nn23)n[nH]1
→ 6 | 110 | . | .
- CCOc1ccc(C(=O)NCCS(=O)(=O)N2CCN(c3cccc(Cl)c3)CC2)cc1
→ . | 107 | 126 | 93
- Cc1ccc(N2C(=O)CS(=O)(=O)C23C(=O)N(Cc2ccccc2F)c2ccccc23)cc1Cl (configuration not stated)
→ 5 | 105 | 97 | 104
- CCCN(C(=O)c1ccc2c(=O)n3c(nc2c1)CCCC3)c1ccc(Cl)c(Cl)c1
→ . | 102 | 83 | 71
- Cc1ccc(NC(=O)CSc2nc(=O)n(CCN3CCOCC3)c3c2CCC3)cc1Cl
→ . | 100 | 100 | 93
- CCCN1CCN(c2nnc(-n3cccc3C(=O)Nc3cc(Cl)ccc3C)s2)CC1
→ . | 106 | 89 | 90
- O=c1c2c(-c3ccc(Cl)cc3)csc2ncn1Cc1ccc2c(c1)OCO2
→ -9 | 99 | . | .
- O=c1c(Cl)c(N2CCCC2)cnn1-c1nc2ccccc2s1
→ -142 | 99 | 94 | 89

Assay outcomes from PubChem BioAssay.
